2A Renilla – Primary qHTS Assay for Foot and Mouth Disease Virus Antivirals against NCGC Sytravon and CBC Compound Libraries: Renilla Luciferase Signal | HEK cells with a luciferase reporter of 2A StopGo recoding | AID 1745857, 2022 | hit rate 0.32% among 120,000 | Potency, µM (top dose mostly 57.5 µM), inactives show top-dose signal change, negative = less light; active means well fitted falling curve with a large enough effect; inconclusive means small, poorly fitted or top-dose-only effect; inactive means no such curve, though single readings can be large or run the other way; also: nearly all actives have a fitted effect of over 55% in size; overnight with compound
2A firefly – Primary qHTS Assay for Foot and Mouth Disease Virus Antivirals against NCGC Sytravon and CBC Compound Libraries: Firefly Luciferase Signal; HEK cells with a luciferase reporter of 2A StopGo recoding; Potency, µM (series often up to 57.5 µM), for the others: top-dose signal change, negative = less light; hit rate 0.23% among 120,000; AID 1745856, 2022; active = well fitted falling curve with a large enough effect; inconclusive = small, poorly fitted or top-dose-only effect; inactive = no such curve, though single readings can be large or run the other way; also: nearly all actives have a fitted effect of over 60% in size; overnight with compound
The depositor's hits bear a star; u = inconclusive; [ ] = dose if it differs, or a comment. % is scaled to controls: 0 for no effect and ±100 for the full control effect; potency is read from the fitted curve at half-maximal effect. These rows are one share of the data. The share of hits here may be higher or lower than overall.

SMILES	2A Renilla	2A firefly
CCN(CC)CCCOC(=O)C(c1ccccc1)c1ccccc1	-15.4%	-14.1%
N#Cc1ccc(C(=O)Oc2ccc(Br)cc2)cc1	5.7%	0.0%
Cc1ccc(CNC(=O)c2cnccn2)s1	6.2%	3.8%
CC1CCN(CC(=O)Nc2cccc(C(=O)Nc3cccc(C(F)(F)F)c3)c2)CC1	-14.3%	-10.4%
CCCCc1cc(=O)oc2c(C)c(OCC(=O)OC(C)C)ccc12	-5.5%	-0.6%
O=C(CSc1nc(Cl)nc2nc[nH]c12)Nc1cccc(Cl)c1	8.3%	1.8%
CCCc1cnc2c(c1SCc1cccc(F)c1)c(=O)n(C)c(=O)n2C	-14.9%	-15.1%
O=C(c1cccc(N2CCCN(Cc3ccccc3)C2=O)c1)N1CCOCC1	15.0%	8.2%
Cc1oc2ncnc(N3CCCCC3)c2c1C(=O)NCC1CCN(Cc2ccc(F)cc2)CC1	-8.8%	-15.6%
O=C(Nc1cccc(Cl)c1)c1c(NC(=O)C(F)(F)F)sc2c1CCCC2	u	u
NC(=O)C(Oc1ccccc1Cl)c1ccccc1 (stereo not given)	1.0%	-10.7%
Cc1ccc(Cl)cc1N1CC(O)=C(c2nc3ccccc3[nH]2)C1=N	21.7%	14.8%
NS(=O)(=O)CCCC(=O)O	6.5%	2.8%
COC(=O)c1ccccc1NC(=O)c1ccccc1OC(F)F	7.6%	-3.2%
Cc1ccc(CCNC(=O)c2c[nH]c3ccc(S(=O)(=O)Nc4cccc(C(F)(F)F)c4)cc3c2=O)cc1	u	u
COc1cc(-c2noc(-c3ccc(N4CCCC4)c([N+](=O)[O-])c3)n2)cc(OC)c1OC	-8.7%	-18.9%
COc1ccc(C(=O)Nn2c(CCC(=O)O)ccc2-c2ccc(C)cc2)cc1OC	3.3%	8.0%
Cc1c(Cl)cccc1NC(=O)c1noc2c1CCCCC2	16.8%	51.1%[activator]
COc1ccc(-c2nc(N)nc(C)c2-c2ccc(OC)c(OC)c2)c(O)c1	65.9%[activator]	0.0%
Cc1ccc(C)c(N2CCN(CCCNC(=O)c3ccc4nc(CCc5ccccc5)oc4c3)CC2)c1	13.1%	0.0%
CCOc1ccc(Sc2cc(C(=O)NCc3ccccc3Cl)c3ccccc3n2)cc1	-6.7%	-28.4%
O=C(NCC1(N2CCOCC2)CCSC1)Nc1ccc(Cl)c(Cl)c1 (stereo not given)	5.3%	-1.0%
CNC(=O)c1ccc(NS(=O)(=O)c2ccc(C(C)(C)C)cc2)cc1	-0.2%	17.6%
Cc1ccc(C)c(N2CCN(C(=O)c3cc4cc5ccc(C)cc5nc4s3)CC2)c1	-13.7%	-9.2%
CC(CNC(=O)CCCn1c(=O)c2cccn2c2cccnc21)c1ccccc1 (stereo not given)	-7.3%	8.4%

The listing continues:
SMILES	2A Renilla	2A firefly
O=C(CSc1ccc2ccccc2c1)N(C1CCCC1)C1CCS(=O)(=O)C1 (stereo not given)	-0.4%	3.8%
CC(=O)N1CCc2c(sc3c2c(=O)n(-c2ccccc2)c(=O)n3CC(=O)Nc2cc(C)cc(C)c2)C1	-14.1%	-9.5%
CC(=O)Nc1nnc(SCc2cc(=O)c3cccc(Cl)c3[nH]2)s1	-3.9%	-10.0%
CC(Oc1cccc(Cl)c1)C(=O)O (stereo not given)	3.4%	13.8%
Cc1cc(/C=C/C(=O)c2cccc(Cl)c2)cc(C)c1O	64.2%[activator]	85.4%[activator]
Cc1cc(C)cc(-n2c(-c3ccccc3)c(C)n3c4c(=O)n(C)c(=O)n(C)c4nc23)c1	-2.0%	-0.7%
Cc1nn(-c2nc(CC(=O)Nc3cccnc3)cs2)c(C)c1Cc1ccccc1	u	u
COCCN(CCOC)C(=O)c1ccc(Cl)cc1F	-8.5%	-1.0%
CCc1ccc(NC(=O)c2ccc3oc(=O)n(Cc4ccccc4)c3c2)cc1	u	u
O=C(Cn1ccn(-c2ccc(F)c(F)c2)c(=O)c1=O)Nc1cccc(Cl)c1	-21.7%	-16.9%
COc1cc(C(=O)Nc2ccc(C(=O)O)cc2)c2ccccc2n1	3.2%	25.2%
N#CCN(C(=O)/C=C/c1ccc(Br)s1)C1CC1	19.8%	47.2%[activator]
C[C@H]1COc2cc(F)ccc2S(=O)(=O)N1C	-0.5%	1.7%
Cc1cc(C(=O)N2CCC(NC(=O)c3ccncc3)CC2)c2ccccc2n1	-0.7%	13.1%
COC(=O)c1ccc(C2CC(=O)NC3=C2C(=O)CC(C)(C)C3)cc1 (stereo not given)	21.5%	22.4%
CCc1ccc(CCC(=O)N(C)Cc2cccs2)cc1	141.8%[activator]	47.9%[activator]
CCOC(=O)c1cccc(NS(=O)(=O)c2cc(-c3cnc(C)o3)ccc2OC)c1	281.4%[activator]	6.3%
CC(C)c1ccc(NC(=O)Cc2cn(C)c3ccccc23)cc1	61.3%[activator]	57.9%[activator]
Cn1c(=O)c2c(nc(N3CCOCC3)n2Cc2ccccc2F)n(C)c1=O	0.7%	10.1%
CC(C)OC(=O)COc1ccc(/C=C(/C#N)c2nc3ccccc3[nH]2)cc1	69.2%[activator]	21.1%
Cc1cccc2[nH]cc(C=O)c12	0.7%	8.5%
Cc1cc(C)c(NS(=O)(=O)c2cccc(C(F)(F)F)c2)c(C)c1	9.4%	-7.6%
COc1cc(NS(=O)(=O)c2ccc3[nH]c4c(c3c2)CCCCCC4)cc(OC)c1	-1.0%	u
COc1ccc(NS(=O)(=O)c2cc(-c3cnc(C4CC4)o3)ccc2C)cc1	118.9%[activator]	u
COc1cc(OC)c(NS(=O)(=O)c2cc(C(=O)N3CCCCCC3)ccc2C)cc1Cl	174.7%[activator]	-3.6%

More entries.
SMILES	2A Renilla	2A firefly
Cc1ccc2[nH]cc(CCNC(=O)Cc3ccc(F)cc3)c2c1	22.1%	21.8%
Fc1ccc(Nc2nc(SCc3ccc(Cl)cc3)nc3ccccc23)cc1	-8.4%	-11.3%
CC(C(=O)NCc1ccc(Cl)cc1)N1CCCC(C(F)(F)F)C1 (stereo not given)	-1.5%	-3.5%
CC(C)c1ccc(Nc2ccc3cc(S(=O)(=O)N4CCCC4)ccc3n2)cc1	-3.7%	-23.5%
COc1ccc2c(CNCCc3ccco3)c(C(=O)O)n(Cc3ccc(C)cc3)c2c1	134.1%[activator]	-0.4%
COc1cccc2cc(/C=C(/C#N)c3nc4ccccc4[nH]3)oc12	129.3%[activator]	124.0%[activator]
CC1(C)C(=O)N(CC(=O)Nc2ccc(Br)cc2F)c2ccccc21	-3.3%	-5.7%
N#CC(C(=O)Nc1ccccc1Cl)C(=O)c1ccc(Cl)cc1 (stereo not given)	-26.7%	294.3%[activator]
O=C(Oc1ccccc1Cl)c1ccccc1OCc1ccc(Cl)cc1	17.1%	5.4%
Cc1ncc(-c2ccc(C)c(S(=O)(=O)N3CCN(c4cccc(Cl)c4)CC3)c2)o1	-1.2%	-1.7%
CC(=O)c1cc(-c2ccccc2)n(CC(=O)NC2CCCCC2)c1C	-2.7%	1.4%
C=C(C)Cn1c(N2CCN(c3cccc(Cl)c3)CC2)nc2c1c(=O)[nH]c(=O)n2C	-19.5%	-15.3%
CC(C)c1ccc(CN2CCN(C(=O)c3cccc4ncccc34)CC2)cc1	u	u
CN1CCN(C(=O)c2ccc3c(c2)N(Cc2ccc(F)cc2)C(=O)c2ccccc2S3=O)CC1 (stereo not given)	6.0%	-10.3%
CCN(CC)c1nn2c(=O)c(C(=O)NCc3ccc(F)cc3)cnc2s1	-8.4%	-12.1%
Cc1cc(C)n(-c2nc3ccccc3nc2Nc2cccc(C)c2C)n1	-7.4%	91.4%[activator]
CC1=C(C(=O)OCc2ccc3c(c2)OCO3)[C@H]2C[C@](C)(N1)Oc1ccccc12	85.5%[activator]	-5.7%
CCCCc1ccc(-n2nnnc2SCC(=O)Nc2ccc(NC(C)=O)cc2)cc1	3.9%	7.2%
COc1ccc(C)cc1NC(=O)c1ccc2c(c1)NC(=O)CS2	-3.0%	5.9%
CCCOC(=O)c1nn(-c2ccccc2)c(=O)c2ccccc12	-3.6%	-4.4%
Cc1sc(NC(=O)c2ccccc2)c(C(c2cccs2)N2CCOCC2)c1C (stereo not given)	22.5%	74.5%[activator]
Cc1nc2ccc(S(=O)(=O)NC(C(=O)N3CCN(c4cccc(Cl)c4)CC3)C(C)C)cc2s1 (stereo not given)	18.3%	-18.0%
CCCn1c(=O)n(C)c(=O)c2c(SCC(=O)Nc3ccc4c(c3)OCO4)nc(C3CC3)nc21	6.8%	23.8%
COc1cc(C(=O)Oc2c(OC)cccc2OC)ccc1OC(F)F	7.9%	10.1%
CS(=O)(=O)c1ccc(C(=O)NCc2ccccc2)cc1	-7.7%[1.06 µM]	1.5%

Further structures:
SMILES	2A Renilla	2A firefly
O=C(Cc1c(Cl)cccc1Cl)NC(c1cccs1)C1CC1 (stereo not given)	-2.2%	-7.9%
COc1ccc(-c2c(C)oc3cc(OCC(=O)Nc4nccs4)ccc3c2=O)cc1	-1.0%	0.0%
COc1ccc(OC)c(C2C(C(=O)N3CCCCC3)=C(C)Nc3nc4ccccc4n32)c1 (stereo not given)	-7.8%	-12.9%
N#Cc1ccc(C(=O)OCc2ccccn2)cc1	6.1%	-3.7%
COC(=O)Cc1cc(=O)n2[nH]c(NCc3ccc(Cl)cc3)nc2n1	1.1%	13.9%
Cc1[nH]c2c(C)cccc2c1C(O)CN1CCCCC1 (stereo not given)	-10.5%	0.8%
O=C(NC1CC1)c1ccc(C2Nc3cc(C(F)(F)F)ccc3S(=O)(=O)N2)cc1 (stereo not given)	16.8%	34.1%[activator]
Cn1c(=O)c2c(nc(SCC(=O)Nc3ccccc3F)n2Cc2ccccc2F)n(C)c1=O	8.9%	-5.6%
CCOC(=O)[C@@](C)(N)Cc1ccc(O)c(O)c1	-11.0%	-11.2%
CCOC(=O)CSc1nc2sc3c(c2c(=O)n1Cc1ccccc1)CC(C(C)C)OC3 (stereo not given)	-8.0%	-3.9%
COc1ccccc1CNC(=O)C1CCN(S(=O)(=O)c2ccc3c(ccn3C)c2)CC1	62.9%[activator]	-12.9%
Cc1cc(C)cc(NC(=O)CCC(=O)N2CCSc3ccccc32)c1	u	u
COc1ccc(CNC(=O)c2cnc3ccccc3n2)cc1	-3.0%	69.3%[activator]
COC(=O)CC(NC(=O)c1nn(C)c(=O)c2ccccc12)c1ccccc1 (stereo not given)	14.6%	4.1%
Cc1nn2c(=O)cc(COC(=O)c3cccc(NC(=O)c4ccc(F)cc4)c3)nc2s1	-9.8%	-6.2%
COc1ccc(C(CC(=O)c2ccco2)SCCO)cc1OC (stereo not given)	-4.6%	49.0%[activator]
CCC(C)C(C(=O)NCc1ccc(C(=O)OC)cc1)c1ccccc1 (stereo not given)	-1.6%	-2.5%
COc1ccccc1-c1nc(S(=O)(=O)c2ccc3c(c2)OCCO3)c(NC(C)C)o1	420.1%[activator]	12.4%
Cc1cccc(-c2ocnc2C(=O)Nc2ccccc2C)c1	-5.1%	6.9%
Cc1noc(C)c1C(=O)N(C)Cc1ccc2c(c1)OCO2	-1.7%	-3.8%
CC1CCN(S(=O)(=O)c2ccc3c(ccc(=O)n3CC(=O)Nc3ccc(C(C)C)cc3)c2)CC1	-14.5%	-28.8%
CCOCN(C(=O)CSc1nc2ccccc2[nH]1)c1c(C)cccc1CC	41.4%[activator]	-2.4%
COC(=O)c1sc(-c2ccccc2)cc1NC(=O)Nc1ccc(F)cc1	-10.5%	19.1%
Cc1cc(SC(C)C(=O)c2ccc(Cl)cc2)nc2ccccc12 (stereo not given)	7.4%	3.6%
N#C/C(=C/c1c2ccccc2cc2ccccc12)c1nc2ccccc2[nH]1	15.9%	0.0%

Gathered by group: those above containing a cyano group
SMILES	2A Renilla	2A firefly
N#Cc1ccc(C(=O)Oc2ccc(Br)cc2)cc1	5.7%	0.0%
N#CCN(C(=O)/C=C/c1ccc(Br)s1)C1CC1	19.8%	47.2%[activator]
CC(C)OC(=O)COc1ccc(/C=C(/C#N)c2nc3ccccc3[nH]2)cc1	69.2%[activator]	21.1%
COc1cccc2cc(/C=C(/C#N)c3nc4ccccc4[nH]3)oc12	129.3%[activator]	124.0%[activator]
N#CC(C(=O)Nc1ccccc1Cl)C(=O)c1ccc(Cl)cc1 (stereo not given)	-26.7%	294.3%[activator]
N#Cc1ccc(C(=O)OCc2ccccn2)cc1	6.1%	-3.7%
N#C/C(=C/c1c2ccccc2cc2ccccc12)c1nc2ccccc2[nH]1	15.9%	0.0%

(next part)
SMILES	2A Renilla	2A firefly
COc1cccc(NC(=O)Cn2c(=O)cc(C)c3c(C)nn(-c4cccc(F)c4)c32)c1	-12.2%	-23.9%
COc1ccc(CC(=O)NC(C)c2nnc(SCC(=O)c3ccc(Cl)cc3)n2C)cc1 (stereo not given)	-8.9%	-8.9%
O=S(=O)(Cc1ccccc1)NCCCCl	45.7%[activator]	-3.0%
CC1CCCN(C(=O)CCc2ncc(-c3ccc(F)cc3F)o2)C1 (stereo not given)	21.3%	0.0%
CCc1ccc2oc(C(=O)NCC(c3ccco3)N3CCCC3)cc(=O)c2c1 (stereo not given)	-13.4%	-14.7%
COc1cc(OC)c(NC(=O)c2nnn(Cc3ccc(C)cc3)c2N)cc1Cl	69.5%[activator]	9.1%
Cn1nc(C(=O)N2CCCCCC2)c2c1-c1ccsc1CC2	48.8%[activator]	158.7%[activator]
C=CCNC(=S)NNC(=O)CCc1ccccc1	1.1%	-9.4%
O=C(Nc1ccc(Cl)cc1C(F)(F)F)c1cc(I)ccc1Cl	13.4%	7.3%
O=C(CN1C(=O)COc2ccc(S(=O)(=O)N3CCCCCC3)cc21)NCCc1ccccc1	53.1%[activator]	-11.7%
CC1CCCCC1NC(=S)NN (stereo not given)	24.5%	0.0%
COc1ccc(CNC(=O)CCc2cn(C)c3ccccc23)cc1	-4.1%	-5.1%
